From PubChem BioAssay
TRPV1 potentiator: human TRPV1 potentiation. Q8NER1. TRPV1-expressing cells, Fluo-8 calcium influx, capsaicin EC20 potentiation; host cell line not named in the record; control for the full effect not named in the record. potentiation, % at 8.33 µM. 320,000 tested, 0.02% active. AID 540277; active means potentiation above 80%; inconclusive means 30% to 80%; inactive means below 30%; also: 0% is about no effect
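Fluo-8 calcium influx in TRPV1-expressing cells, kinetic read (ex 480/em 520 nm). Compound added and read 3 min for agonist activity, followed by capsaicin at EC20 final and 2 min further read for enhancement.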
ClpP mod: qHTS Assay for Activators of ClpP; ATP-dependent Clp protease proteolytic subunit (Bacillus subtilis (strain 168)), P80244; purified B. subtilis ClpP, FRET peptide cleavage, 20 min; Potency, µM (top dose mostly 57.5 µM), for inactives: top-dose activity change, negative = active; 340,000 tested, 1.9% active; AID 651965, 2013; active = well fitted falling curve with a large enough effect; inconclusive = small, poorly fitted or top-dose-only effect; inactive = no such curve, though single readings can be large or run the other way; also: potency is read from the fitted curve at half-maximal effect; the source files actives as falling curves though it sought activators and does not explain the sign; nearly all actives have a fitted effect of over 65% in size; many hits overshoot -100%
Target sequence (P80244 whole entry, looked up): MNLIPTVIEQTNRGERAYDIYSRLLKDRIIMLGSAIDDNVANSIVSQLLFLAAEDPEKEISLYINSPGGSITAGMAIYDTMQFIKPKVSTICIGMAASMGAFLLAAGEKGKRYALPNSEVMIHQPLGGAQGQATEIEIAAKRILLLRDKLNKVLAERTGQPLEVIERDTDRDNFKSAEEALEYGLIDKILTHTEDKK
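Purified B. subtilis ClpP, 10 microg/mL final in Tris/HCl pH8 with KCl, BSA, glycerol and Tween-20, cleaved an Abz/nitrotyrosine-quenched decapeptide. Fluorescence (ex 320, em 430) was read at 0 and 20 min at room temperature. Delta was normalized to 5.8 microM ADEP and DMSO/no-enzyme controls.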
gsp ag: gsp mutant agonism; gsp mutant cells, cAMP HTRF, 30 min; control for the full effect not named in the record; Potency, µM (top dose mostly 76.9 µM), for the others: at the highest dose activation (cAMP increase), most hits filed as activators; 340,000 tested, 0.13% active; active = well fitted activation curve with a large enough effect; inconclusive = small, poorly fitted or top-dose-only effect, or another doubt; inactive = no such curve, though single readings can be large or run the other way; cell line not stated here;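 also: phosphodiesterase inhibitor Ro 20-1724 added with compounds to block cAMP breakdown; potency is read from the fitted curve at half-maximal effect; nearly all actives have a fitted effect of over 60% in size; about a fifth of the inactives were tested at one dose only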
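Cells stably selected in G418 were plated at 2000/well, grown 16-24 hr, then given compounds in DMSO with the PDE inhibitor […] (300 uM solution added) for 30 min at 37C; cAMP was read by HTRF.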
D2 potentiator: potentiates the human D2 dopamine receptor allosterically. P14416. DiscoveRx D2 beta-arrestin cells, luminescence, 90 min; 100% = 57 uM dopamine signal. potentiation, % (concentration not given with the values). 360,000 tested, 0.23% active. AID 624464; active = potentiation of 50% or more; inconclusive = 30% to 50%; inactive = 30% or less;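 also: compound concentration not given in the record; tested on top of an EC20 dose of dopamine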
Target sequence (P14416 whole entry, looked up): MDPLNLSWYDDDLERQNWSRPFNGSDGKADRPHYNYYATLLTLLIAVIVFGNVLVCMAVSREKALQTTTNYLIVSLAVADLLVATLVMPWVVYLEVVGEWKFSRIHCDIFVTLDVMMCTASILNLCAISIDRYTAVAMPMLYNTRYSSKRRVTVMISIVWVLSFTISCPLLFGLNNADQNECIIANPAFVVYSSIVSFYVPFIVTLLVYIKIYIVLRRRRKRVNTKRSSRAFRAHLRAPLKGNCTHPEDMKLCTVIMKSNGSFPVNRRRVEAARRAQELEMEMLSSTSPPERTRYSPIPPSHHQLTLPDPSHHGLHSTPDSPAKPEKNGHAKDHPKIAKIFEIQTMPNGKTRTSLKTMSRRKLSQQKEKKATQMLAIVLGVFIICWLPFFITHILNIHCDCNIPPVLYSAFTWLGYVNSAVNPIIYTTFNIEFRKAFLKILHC
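PathHunter D2 cells, attached overnight at 37 deg C, received compound in DMSO plus dopamine at EC20 (50 nM final) for 90 min at 37 deg C. Beta-arrestin recruitment was read as luminescence after 1 h with detection reagent at ambient temperature.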
gsp antagonist: gsp mutant antagonism; gsp-mutant cells, cAMP HTRF, 30 min; control for the full effect not named in the record; Potency, µM (highest dose often 76.9 µM), inactives show at the highest dose activity change, negative = inhibition, hits mostly inhibitors; 340,000 tested, 0.4% active; active = falling curve of any shape with a large fitted effect; inconclusive = falling curve, mostly with a smaller effect; inactive = flat or rising curve; cell line not stated here;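 also: intracellular cAMP measured with PDE inhibitor Ro 20-1724 present during compound exposure; potency is read from the fitted curve at half-maximal effect; % is scaled to controls: 0 for no effect and ±100 for the full control effect; nearly all actives have a fitted effect of over 65% in size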
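HTRF cAMP measurement after 30 min RT detection following 30 min, 37C compound treatment alongside […] (added as 300 uM solution) in G418-selected cells seeded at 2000/well and grown 16–24 h.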
Sfp PPTase inh: inhibitors of Bacillus subtilis Sfp phosphopantetheinyl transferase; Q9F4F7; Biochemical Sfp PPTase activity, qHTS; Potency, µM, without a hit: max response, negative = inhibition, most hits filed as inhibitors; 310,000 tested, 3.5% active; active = well fitted inhibition curve with a large enough effect; inconclusive = small, poorly fitted or top-dose-only effect, or another doubt; inactive = no such curve, though single readings can be large or run the other way;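 also: the enzyme is Sfp with the accession as filed and its product quenches rhodamine fluorescence; potency is read from the fitted curve at half-maximal effect; 0% = enzyme reaction without inhibitor and -100% = no enzyme wells; top concentration of the series not given in the record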
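Sfp 15 nM + cpd, 15 min RT; start w/ rhodamine-CoA 5 uM, BHQ-2-YbbR 12.5 uM (final); 50 mM Hepes pH 7.6, 10 mM MgCl2, 0.01% NP-40, 0.01% BSA; read 525/598 nm at 0 and 30 min.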
Menin-MLL FL inh: menin-MLL binding inhibition, fluorescein peptide | AID 1766 | Fluorescence polarization, fluorescein-MLL peptide displacement from menin | 290,000 tested, under 10 active | FP activity change, % at 61.4 µM; inconclusive = falling polarisation curve, or a change in total fluorescence; inactive = total fluorescence flat and polarisation flat or rising; no compound was filed as active; the % refers to the polarisation; negative = inhibition;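 also: % of control where 0% means no effect; inhibitors lower the polarisation; unlabelled MLL peptide was the positive control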
An asterisk follows results filed as active; [ ] = dose if it differs, or a comment.

For O=C(CNCCO)NC12CC3CC(CC(C3)C1)C2 the results were TRPV1 potentiator -2, ClpP mod -5.9%, gsp ag 1%, D2 potentiator 4, gsp antagonist 10%, Sfp PPTase inh 8% and Menin-MLL FL inh 6.1.
Screening COc1cc(C2C3=C(CC(C)(C)CC3=O)OC3=C2C(=O)CC(C)(C)C3)cc([N+](=O)[O-])c1O returned TRPV1 potentiator -1, gsp ag -20%[15.4 µM], D2 potentiator -13, gsp antagonist -13%, Sfp PPTase inh -1% and Menin-MLL FL inh 3.7.
For C[C@H]1COC(=O)[C@H](CC(=O)OC(C)(C)C)C/C=C\C[C@@H](CC(=O)NCCO)C(=O)N1 the results were ClpP mod -3.7%, gsp ag -49%[inhibitor], D2 potentiator -5 and gsp antagonist -3%.
Screening CC(=O)NC1C(Oc2ccccc2C)OC2COC(c3ccco3)OC2C1O (stereo not given) returned TRPV1 potentiator 4, ClpP mod 1.2%, gsp ag -2%[15.4 µM], D2 potentiator -6, gsp antagonist 1%, Sfp PPTase inh 4% and Menin-MLL FL inh 0.6.
`CCN=C1SC(CC(=O)Nc2ccc(N3CCOCC3)cc2)C(=O)N1CC` (stereo not given) gave TRPV1 potentiator -1, ClpP mod -28%, gsp ag 0%, D2 potentiator -8, gsp antagonist 10%, Sfp PPTase inh 7% and Menin-MLL FL inh -1.0.
O=C(COC(=O)CNC(=O)c1ccccc1Cl)Nc1ncc(C(F)(F)F)cc1Cl was read as TRPV1 potentiator 7, ClpP mod -8.8%, gsp ag -13%, D2 potentiator -16, gsp antagonist -5%, Sfp PPTase inh 9% and Menin-MLL FL inh 8.1.
Screening CCOC(=O)c1ccc(-n2c(C)nc3ccccc3c2=O)cc1 returned TRPV1 potentiator 6, ClpP mod 2.1%, gsp ag 2%, D2 potentiator 0, gsp antagonist -4%, Sfp PPTase inh -2% and Menin-MLL FL inh -4.1.
`Cc1ccc(C)c(S(=O)(=O)N2CCN(C(=O)CCC(=O)NCc3ccc(Cl)cc3Cl)CC2)c1` gave ClpP mod -1.0%, gsp ag -49%[inhibitor], D2 potentiator 3 and gsp antagonist -12%.
`Cc1nn(-c2ccccc2)nc1C(=O)NN` gave TRPV1 potentiator inconclusive, ClpP mod 0.0%, gsp ag -54%[inhibitor], D2 potentiator -5, gsp antagonist 4%, Sfp PPTase inh -7% and Menin-MLL FL inh 1.9.
Screening O=C(CN1CCN(c2ccccn2)CC1)Nc1cccc(Cl)c1Cl returned TRPV1 potentiator -26, ClpP mod 1.7%, gsp ag -22%[15.4 µM], D2 potentiator -8, gsp antagonist -34%, Sfp PPTase inh -8% and Menin-MLL FL inh 6.3.
Screening Cc1cc(=O)n(C(C)(C)C)c(=O)n1Cc1ccccc1 returned TRPV1 potentiator -4, ClpP mod -0.5%, gsp ag -52%[inhibitor], D2 potentiator -7, gsp antagonist 9%, Sfp PPTase inh 10% and Menin-MLL FL inh -4.3.
COc1cc(C(=O)Nc2sc3c(c2C(=O)O)CCC(C)C3)cc(OC)c1OC (stereo not given) was read as TRPV1 potentiator 0, gsp ag inconclusive, D2 potentiator 3, gsp antagonist inconclusive, Sfp PPTase inh -11% and Menin-MLL FL inh 0.2.
For O=C(O)C1CCC(CNCc2ccccc2Cl)CC1 (stereo not given) the results were TRPV1 potentiator -12, ClpP mod 17%, gsp ag -17%, D2 potentiator -2, gsp antagonist -14%, Sfp PPTase inh 17% and Menin-MLL FL inh -4.7.
For Cc1nnnn1-c1ccc(CC(=O)O)cc1 the results were TRPV1 potentiator 7, gsp ag -60%[inhibitor], D2 potentiator 1, gsp antagonist 10%, Sfp PPTase inh 21% and Menin-MLL FL inh 8.6.
For CCC(=O)c1ccc(OCC(=O)Nc2ccccc2N2CCCCC2)cc1 the results were TRPV1 potentiator -6, ClpP mod 1.0%, gsp ag inconclusive, D2 potentiator 4, gsp antagonist 5% and Sfp PPTase inh 6%.
For COc1ccc(C2(CNC(=O)c3ccccc3[N+](=O)[O-])CCOCC2)cc1 the results were TRPV1 potentiator 4, gsp ag -1%[15.4 µM], D2 potentiator -8, gsp antagonist 4%, Sfp PPTase inh 12% and Menin-MLL FL inh 6.6.
Screening COC(=O)c1nc(NC(=O)C(C)C)n[nH]1 returned TRPV1 potentiator -5, ClpP mod -1.0%, gsp ag 9%, D2 potentiator -14, gsp antagonist 3%, Sfp PPTase inh 22µM* and Menin-MLL FL inh 1.7.
Screening CC(C)NC(=S)N/N=C/c1sc(N2CCCCC2)nc1-c1cccs1 returned TRPV1 potentiator 1, ClpP mod 1.5%, gsp ag 0%, D2 potentiator -19, gsp antagonist 8%, Sfp PPTase inh -9% and Menin-MLL FL inh -6.8.
Cc1ccc(Nc2ncccc2C(N)=O)cc1[N+](=O)[O-] was read as TRPV1 potentiator 11, gsp ag -10%, D2 potentiator 1, gsp antagonist -10%, Sfp PPTase inh -11% and Menin-MLL FL inh 1.5.
Screening COc1cc(C(=O)N[C@@H](Cc2c[nH]c3ccccc23)C(=O)O)cc(OC)c1OC returned TRPV1 potentiator inconclusive, gsp ag 5%, D2 potentiator -5, gsp antagonist 10%, Sfp PPTase inh 6% and Menin-MLL FL inh 3.1.
For COc1ccc2oc(C(=O)N(CC(C)C)C3CCS(=O)(=O)C3)c(C)c2c1 (stereo not given) the results were TRPV1 potentiator 7, gsp ag 23%[15.4 µM], D2 potentiator -13 and gsp antagonist -1%.
Screening CC(C)(C)c1ccc(/C=N/NC(=S)NC2CCCCC2)cc1 returned TRPV1 potentiator 4, ClpP mod -2.9%, gsp ag -1%[15.4 µM], D2 potentiator -41, gsp antagonist -1%, Sfp PPTase inh 7% and Menin-MLL FL inh 3.0.
COc1ccc(CN2C(=O)C(CC(=O)NCCCCc3ccccc3)CC(C(=O)N(C)C)=C2C)cc1 (stereo not given) was read as ClpP mod -0.7%, gsp ag -54%[inhibitor] and D2 potentiator 1.
Screening Cc1cccc(C(C)(C)C)c1OCCCCN1CCCC1 returned TRPV1 potentiator 5, ClpP mod -0.4%, gsp ag 17%, D2 potentiator -16, gsp antagonist 5%, Sfp PPTase inh 0% and Menin-MLL FL inh 0.7.
For O=C(C1=C(O)C(=O)N(Cc2ccco2)C1c1ccccc1)c1cccs1 (stereo not given) the results were TRPV1 potentiator -8, ClpP mod 0.2%, gsp ag inconclusive, D2 potentiator -17, gsp antagonist 4%, Sfp PPTase inh -13% and Menin-MLL FL inh 5.2.
`COc1cc(OC)c(N(C)S(=O)(=O)c2cccc(C(=O)Nc3nnc(C4CC4)s3)c2)cc1Cl` gave TRPV1 potentiator 10, ClpP mod 0.4%, gsp ag inconclusive, D2 potentiator -4, gsp antagonist -14%, Sfp PPTase inh 27% and Menin-MLL FL inh 5.6.
Screening N#CCNC1CC(=O)N(c2ccccc2)C1=O (stereo not given) returned TRPV1 potentiator 10, ClpP mod -5.8%, gsp ag 3%, D2 potentiator -23, gsp antagonist 9%, Sfp PPTase inh 15% and Menin-MLL FL inh -8.1.
Screening CCc1nnc(NC(=O)CS(=O)(=O)Cc2ccccc2)s1 returned TRPV1 potentiator 23, gsp ag 12%, D2 potentiator -2, gsp antagonist -1%, Sfp PPTase inh 3% and Menin-MLL FL inh -4.8.
`COc1ccc(S(=O)(=O)N(CCCN2CCOCC2)Cc2ccc(OC)c(OC)c2)cc1` gave TRPV1 potentiator -3, ClpP mod 0.6%, gsp ag -40%[inhibitor], D2 potentiator -16, gsp antagonist -10%, Sfp PPTase inh 13% and Menin-MLL FL inh -0.4.
Cc1ccccc1NC(=O)CC1SCCNC1=O (stereo not given) was read as TRPV1 potentiator 3, ClpP mod -0.4%, gsp ag 10%, D2 potentiator -4, gsp antagonist 5%, Sfp PPTase inh 22µM* and Menin-MLL FL inh 0.5.
For O=c1c2ccccc2nnn1Cc1ccccc1 the results were ClpP mod 0.9%, gsp ag inconclusive, D2 potentiator 1, gsp antagonist 4%, Sfp PPTase inh 10% and Menin-MLL FL inh 6.5.
Screening CCCNC(=O)C(Cc1ccc(F)cc1)NC(=O)c1ccccc1 (stereo not given) returned TRPV1 potentiator -18, ClpP mod 3.2%, gsp ag 21%, D2 potentiator -7 and gsp antagonist 7%.
COC(=O)C(NNc1ccccc1)(NC(=O)c1ccc(F)cc1)C(F)(F)F (stereo not given) was read as TRPV1 potentiator -13, ClpP mod 65%, gsp ag 13%, D2 potentiator -5, gsp antagonist -3%, Sfp PPTase inh -6% and Menin-MLL FL inh 0.2.
For Nc1ccc2c(c1)C(=O)N(c1cccc3ccccc13)C2=O the results were TRPV1 potentiator -5, ClpP mod 0.9%, gsp ag 11%[15.4 µM], D2 potentiator -2, gsp antagonist 2%, Sfp PPTase inh 3% and Menin-MLL FL inh -7.8.
For O=C(Cn1cncn1)N/N=C/c1cccnc1 the results were TRPV1 potentiator -1, ClpP mod 0.0%, gsp ag -3%[15.4 µM], D2 potentiator -5, gsp antagonist -4%, Sfp PPTase inh 2% and Menin-MLL FL inh 0.2.
For CC(=O)c1sc(NC(=O)c2cc(=O)c3ccccc3o2)nc1C the results were TRPV1 potentiator -7, ClpP mod 0.8%, gsp ag 5%, D2 potentiator 68*, gsp antagonist -18%, Sfp PPTase inh -16% and Menin-MLL FL inh -0.9.
`Cc1ccc(NS(=O)(=O)c2ccc(Cl)c(C(=O)Nc3cccc(C(=O)O)c3)c2)cc1` gave TRPV1 potentiator 18, ClpP mod 1.4%, gsp ag -9%, D2 potentiator -9, gsp antagonist -2%, Sfp PPTase inh 8% and Menin-MLL FL inh 0.4.
Screening CC1(C)Cc2ccccc2-c2nnc(-c3cccc(O)c3)n21 returned TRPV1 potentiator 4, ClpP mod 1.9%, gsp ag -33%, D2 potentiator -5, gsp antagonist 0%, Sfp PPTase inh 5% and Menin-MLL FL inh 1.1.
For CC[N+](C)(CC)CCC(c1ccccc1)C1CCCCC1 (stereo not given) the results were TRPV1 potentiator -12, gsp ag 0%, D2 potentiator -3, gsp antagonist 15%, Sfp PPTase inh -19% and Menin-MLL FL inh -3.2.
